Polio RdRp inh = inhibitors of poliovirus RNA polymerase binding and polymerization; P03300; poliovirus polymerase elongation, fluorescence polarization; hits give low values; % elongation, % (compound at 16.7 µg/mL); 0.66% of 150,000 active; AID 588519; in the data active = % elongation below about 90%; also: some results filed as inactive read as strong as hits
Target sequence (P03300 1749-2209 limits assumed): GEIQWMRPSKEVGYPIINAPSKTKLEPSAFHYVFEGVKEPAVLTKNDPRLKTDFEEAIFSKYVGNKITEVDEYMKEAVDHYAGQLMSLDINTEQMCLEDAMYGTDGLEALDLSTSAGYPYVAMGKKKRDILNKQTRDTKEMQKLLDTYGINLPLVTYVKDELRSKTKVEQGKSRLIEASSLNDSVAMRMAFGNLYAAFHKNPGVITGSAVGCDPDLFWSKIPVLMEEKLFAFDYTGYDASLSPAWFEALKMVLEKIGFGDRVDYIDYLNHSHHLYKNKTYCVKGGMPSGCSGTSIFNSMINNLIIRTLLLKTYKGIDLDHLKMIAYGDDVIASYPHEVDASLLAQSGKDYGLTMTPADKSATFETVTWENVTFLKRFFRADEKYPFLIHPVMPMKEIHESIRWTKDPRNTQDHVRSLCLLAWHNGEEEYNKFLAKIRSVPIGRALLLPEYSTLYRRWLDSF
MenB inh = inhibitors of Mycobacterium tuberculosis MenB enzyme | AID 540299 | 0.43% of 100,000 active | P9WNP5 | MenB enzyme assay, absorbance read-out; some hits fall short of the stated cut | inhibition, %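 (about 12 µg/mL by stock and volumes)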;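 active = mean of two replicates above 30%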;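 also: 0% = no compound and 100% = wells with inactive enzyme; the first replicate is given; strong numbers were not always called active; inactives centre near -10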
Target sequence (P9WNP5 whole entry, looked up): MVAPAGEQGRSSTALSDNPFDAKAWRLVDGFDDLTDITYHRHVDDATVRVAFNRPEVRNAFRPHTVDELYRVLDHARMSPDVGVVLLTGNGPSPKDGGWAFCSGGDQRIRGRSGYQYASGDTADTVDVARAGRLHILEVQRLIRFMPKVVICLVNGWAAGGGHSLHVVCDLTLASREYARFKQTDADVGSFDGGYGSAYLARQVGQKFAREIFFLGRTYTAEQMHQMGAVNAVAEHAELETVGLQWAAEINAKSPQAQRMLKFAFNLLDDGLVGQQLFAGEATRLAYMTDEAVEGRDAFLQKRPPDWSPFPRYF
Mtb MbtI inh = blocks the Mycobacterium tuberculosis siderophore enzyme MbtI. P9WFX0. 0.89% of 100,000 active. purified MbtI enzyme, fluorescence intensity read-out. inhibition, %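 (about 17 µg/mL by stock and volumes)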;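 active = above 50% in both replicates, above 80% if mildly self-fluorescent; inactive = the rest, strongly fluorescent compounds included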;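 also: 0% = mean of negative and 100% = mean of positive controls; one replicate is shown; some compounds called inactive have numbers as strong as hits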
Polio RdRp inh intensity = further read-out of Polio RdRp inh, marked with its call; % elongation; measured here: total intensity read-out; formula for this scale not given here;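 total fluorescence in place of polarization; lower means less elongation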
* hit, by the source's call; · = no result given; & = joins results of further samples.

SMILES	Polio RdRp inh	Polio RdRp inh intensity	MenB inh	Mtb MbtI inh
COC(=O)C(C)Sc1nc(N)c(NC(=O)c2ccco2)c(=O)[nH]1 (stereo not drawn)	105	102	-26	-1
CCOc1ccc(CN(C)C(=O)C2=NNC(=O)CC2)cc1	105	102	-14	-14
Cc1cc(C)c(S(=O)(=O)N(C)CC(=O)NCc2ccco2)c(C)c1	105	102	-39	-20
COC(=O)c1cncn1C(C)c1ccccc1 (stereo not drawn)	106	95	23	·
C=CCn1c(C)cc(C(=O)COC(=O)C2CCN(C(=O)Nc3ccccc3)CC2)c1C	103	110	-13	-9
Cc1nnc(SCC(=O)N(c2ccccc2)C(C)C)n(N)c1=O	106	112	-4	0
Cc1nc2c(=O)n(-c3cc(C(F)(F)F)ccc3Cl)nc(C)c2s1	104	108	-7	-9
CCC1CCCCN1Cc1ccc(CNC(=O)c2cc3ccc4cccnc4c3[nH]2)o1 (stereo not drawn)	100	102	-2	-29
COc1ccc(CNC(=O)c2cc3ccccc3oc2=O)cc1	107	112	-14	·
CN(C(=O)COC(=O)Cc1c[nH]c2ccccc12)C1CCCCC1	·	·	-39	-5
O=C1CC(C(=O)Nc2ccc(Cl)cc2)SC(=Nc2ccccc2)N1 (stereo not drawn)	103&103	106&103	-21	-15&-1
C=CC(=O)NCC(c1cccs1)N1CCOCC1 (stereo not drawn)	102	104	·	-18
CCOC(=O)N1CCC(NC(=O)c2cc3c(s2)-c2ccccc2OC3)CC1	102	103	-6	106
O=C(CC(=O)N1CCCCC1)N1CCCCC1	104	108	·	-17
CCOC(=O)CN1CCC(n2nnc3cc(C(F)(F)F)ccc32)CC1	100	101	40*	2
COC(=O)CC1=CC(C)(CC(=O)OC)C(C#N)(C#N)C(N)=C1C#N (stereo not drawn)	100	104	1	·
CC1=NN(c2ccccc2)C(=O)/C1=C/c1cn(CC(O)CN2CCOCC2)c2ccccc12 (stereo not drawn)	100	99	-155	-2
CC(NC(=O)C(=S)N1CCCC1)c1ccccc1 (stereo not drawn)	101	103	4	16
COc1ccc(C(=O)O/N=C(\N)c2ccccc2)cc1	104	102	-1	2
CCN(CC)c1ccc(C=C2C(=O)N(C)C(=O)N(C)C2=O)c(OCc2ccc(Cl)cc2Cl)c1	57	167	-14	·
CC1CCCCC1NC(=O)C1CCCN(c2nc3ccccc3o2)C1 (stereo not drawn)	103	102	-12	0
O=C(c1ccco1)N(c1ccccn1)C1CCCCC1	103	103	·	-3
CC(C)C(=O)Nc1scc(-c2ccccc2)c1C(=O)O	102	107	·	-6
CCn1cc(/C=C(\NC(=O)c2ccccc2)C(=O)N2CCCC2)c2ccccc21	104	106	-12	11
Cc1ccc(-n2c(C)c(Br)c3c2CCCC3=O)cc1	102	112	-11	-2

(more compounds)
SMILES	Polio RdRp inh	Polio RdRp inh intensity	MenB inh	Mtb MbtI inh
O=C1N=c2ccccc2=C1c1s/c(=N/N=C2\C(=O)Nc3ccccc32)n(-c2ccc(O)cc2)c1O	103	100	-34	-10
c1ccc(-c2nc3ccccn3c2Nc2ccc3c(c2)OCO3)cc1	104	96	-20	105
O=C(C1CCN(S(=O)(=O)Cc2ccccc2)CC1)N1CCCc2ccccc21	101	99	-20	0
CC1(C)c2ccccc2-n2c1cc1oc(=O)cc(O)c1c2=O	103	104	-4	2
O=C1C(c2ccncc2)=C(O)c2ccccc21	101	97	-124	23
CCCc1n[nH]c2c1/C(=N\O)CC(c1ccccc1)C2 (stereo not drawn)	101	99	·	-8
O=C(CSc1ncn[nH]1)OCN1C(=O)c2ccccc2C1=O	94	97	4	·
Nc1ccc(S(=O)(=O)Nc2ccccc2)cc1	108	112	-11	15
CCOC(=O)c1ccc(NC(=O)/C=C/c2cccs2)cc1	103	108	·	19
O=C1c2ccccc2C(=Nc2ccccc2)C1c1ccccc1 (stereo not drawn)	99	107	-5	·
Cc1cnc2c(c1SCC(=O)NCc1ccc3c(c1)OCO3)c(=O)n(C)c(=O)n2C	106	106	-26	-11
O=C(C1=COCCO1)N1CCN(C(c2ccccc2)c2ccccc2)CC1	99	96	-30	-31
CC1=C(c2ccccc2)SC2=NCCN21	101	99	3	2
CCn1c(SCC(=O)Nc2ccccc2C(=O)NC2CC2)nc2cc(S(N)(=O)=O)ccc21	104	108	-7	-8
Cc1ccccc1-n1nnnc1SCC(=O)N1CCCc2ccccc21	106	106	-11	-4
CC1=C(C(=O)O)SC2=NCCCCN21	100	97	-15	9
CC(C)n1nnc(CC(=O)O)n1	104	101	24	0
COCCNC(=S)N1CCN(c2ccc(S(=O)(=O)N3CCCC3)cc2)CC1	102	104	-28	6
CN1C(=O)c2ccc(C(=O)NCCCn3ccnc3)cc2C1=O	99	102	-10	-14
Cc1sc2nc(CCl)nc(Cl)c2c1C	103	106	·	0
CC(C)C(NC(=O)c1ccccn1)c1ccc2c(c1)OCCCO2 (stereo not drawn)	103	101	-16	-2
C=CCN1C(=O)N(c2ccccc2)C(=O)C1CC(=O)Nc1ccccc1 (stereo not drawn)	103	106	-1	4
COc1cc2c(cc1OC)C1CC(=O)C(CC(C)C)CN1CC2 (stereo not drawn)	104	114	1	·
Cc1cc(N(Cc2cccc(Cl)c2Cl)C(=O)c2ccccc2)no1	108	104	0	-5
CC(C)(C)NC(=S)N1CCn2cccc2C1c1ccccc1F (stereo not drawn)	100	108	-24	1

Retrieved by compound from the list above, 4 records:
SMILES	Polio RdRp inh	Polio RdRp inh intensity	MenB inh	Mtb MbtI inh
CC1(C)c2ccccc2-n2c1cc1oc(=O)cc(O)c1c2=O	103	104	-4	2
O=C(c1ccco1)N(c1ccccn1)C1CCCCC1	103	103	·	-3
Cc1cnc2c(c1SCC(=O)NCc1ccc3c(c1)OCO3)c(=O)n(C)c(=O)n2C	106	106	-26	-11
Cc1nc2c(=O)n(-c3cc(C(F)(F)F)ccc3Cl)nc(C)c2s1	104	108	-7	-9

(continued)
SMILES	Polio RdRp inh	Polio RdRp inh intensity	MenB inh	Mtb MbtI inh
CCc1nnc(NC(=O)[C@@H]2CCCN2C(=O)c2cccs2)s1	102	107	-23	17
c1n[nH]c(SCc2cn3ccsc3n2)n1	105	104	5	8
CCn1c(=NC(=O)C2COc3ccccc3O2)sc2cccc(F)c21 (stereo not drawn)	95	100	9	18
COc1cccc(/C=N/NC(=O)c2ccoc2C)c1	101	101	-4	9
Cc1cccc(N=C2NC(=O)/C(=C3/C(=O)N(CC(=O)O)c4ccccc43)S2)c1C	103	98	-109	-10
Cc1cc(C)c2c(n1)sc1c(Sc3nnc(-c4cccs4)o3)ncnc12	101	102	11	5
O=S(=O)(NCC1CN(Cc2ccccc2)CN(Cc2ccccc2)C1)c1ccc(Cl)cc1	105	106	-31	-6
N#Cc1c(Cl)nc(N2CCOCC2)c(Cl)c1Cl	104	99	-20	-9
CCNC(=S)N(CCc1c(C)[nH]c2ccccc12)Cc1ccco1	99	102	-19	7
C=C(C)C(=O)OC1CC(C)=C2C(=O)C=C(C)C2C2OC(=O)C(C)(OC(=O)C(=C)C)C12 (stereo not drawn)	100	104	0	2
C=CCC1(CC=C)C(=O)N(C)C(=O)N(C)C1=O	100	100	18	1
CCCNC(=O)Nc1ccc2c(c1)OCCO2	101	106	7	3
Cc1nn(-c2ccccc2)c(N)c1C1(O)C(=O)Nc2ccccc21 (stereo not drawn)	101	101	·	-7
CN1C(=O)/C(=C\c2ccccc2)Sc2ccc(C(=O)NCc3cccs3)cc21	104	110	-32	1
CC1CCCCN1C(=O)CSc1nnc(NCc2ccccc2)s1 (stereo not drawn)	102	105	-16	-3
COc1ccc(C(=O)Oc2ccc(/C=N/N=C3\NC(=O)CS3)cc2OC)cc1	101	104	7	-2
CC1CN(C(=O)c2cc3c(s2)CCCC3)CC(C)O1 (stereo not drawn)	98	108	-14	2
N#C/C(=C\c1ccc2c(c1)OCO2)C(=O)Nc1ccc(-c2nnc3n2CCCCC3)cc1	106	99	-24	1
CC1SC(=Nc2ccc(S(=O)(=O)N3CCOCC3)cc2)NN=C1C12CC3CC(CC(C3)C1)C2 (stereo not drawn)	99	102	-19	2
Oc1ccc(CN2CCCC2)c2cccnc12	111	117	7	1
Cn1ncc(C(C#N)c2nc3ccccc3s2)c(Cl)c1=O (stereo not drawn)	140	134	-266	57*
O=C(CNc1ncnc2ccccc12)OCCOc1ccccc1	110	114	-3	-28
O=C(CCc1nnc2ccc(NCc3ccco3)nn12)Nc1cccnc1	102	102	-21	-5
Nc1n[nH]c(C(F)(F)C(F)(F)C(F)(F)F)n1	102	102	-23	3
COc1cc(NS(=O)(=O)c2ccc(N3C(=O)c4ccccc4C3=O)cc2)nc(OC)n1	104	100	-5	-5

(next part)
SMILES	Polio RdRp inh	Polio RdRp inh intensity	MenB inh	Mtb MbtI inh
O=C(NC1CC2CCC1C2)c1ccc(CN2CCN(c3ccccc3)CC2)cc1 (stereo not drawn)	100	101	6	-4
O=C(NCC(c1cccs1)N1CCOCC1)Nc1ccccc1Cl (stereo not drawn)	107	115	-10	-19
O=C(Cn1ncc2c3ccccc3n(Cc3cccc(Cl)c3)c2c1=O)N1CCCC1	112	127	-6	9
CN(C)CP(=O)(O)CCc1ccccc1	99	102	7	-7
Cc1ccnc(SC2CC(=O)N(c3ccc(C)c(C)c3)C2=O)n1 (stereo not drawn)	102	102	-8	3
NNC(=O)CNC(=O)c1cc(Cl)ccc1Cl	98	104	17	4
CCOc1ccccc1NCC(=O)Nc1ccccc1C#N	104	108	-23	-11
O=C(CCCn1c(=O)c2cccn2c2ccccc21)NCC1CCCO1 (stereo not drawn)	101	106	-7	-9
CCOC(=O)c1cnc2ccc(OCC)cc2c1N(C)Cc1ccccc1	104	105	-18	-15
CNC(=S)Nc1ccc2[nH]c(=O)[nH]c2c1	106	104	-33	2
S=C(NCC1CCCO1)SCc1cn2cccnc2n1 (stereo not drawn)	96	98	-53	76
O=C(OC1CCOC1=O)C1CCN(S(=O)(=O)c2ccccc2)CC1 (stereo not drawn)	101	106	-12	-3
Cc1cc(N2CCN(c3ccccc3)CC2)nc2cc(Cl)ccc12	100	101	-53	85
NCCC(=O)N1CCCC1	105	107	-7	6
O=S(=O)(c1ccc(N(C(F)F)S(=O)(=O)c2ccc(Cl)cc2)cc1)N1CCOCC1	101	102	-39	-14
COc1cccc(CNC(C)(C)CO)c1OCc1ccc(Cl)cc1	102	107	-15	-20
O=C(COc1c(-c2ccccc2)oc2ccccc2c1=O)N1CCOCC1	100	98	-7	13
O=C(O)c1cccc(Nc2nc(-c3ccccc3)c3ccccc3n2)c1	101	104	-5	19
Brc1c(-c2ccccc2)nc2n1-c1ccccc1C2	101	99	-21	2
COc1ccc2c(c1)O/C(=C\c1cccc(OC(=O)N(C)C)c1)C2=O	98	106	-4	30
O=C(c1ccco1)N1CCN(Cc2ccc(F)cc2)CC1	101	103	-10	-10
CCn1c(=O)c2cc(C(=O)N(C)Cc3ccco3)sc2c2ccccc21	100	101	-13	8
CC1CCCCN1C(=O)Cn1ncc2c1-c1ccccc1OC2 (stereo not drawn)	101	103	-15	1
O=C(OCCN=C1NS(=O)(=O)c2ccccc21)c1ccccc1	100	103	19	0
Clc1cc(Cl)c2nc(Oc3cccc(N4CCOCC4)c3)sc2c1	112	113	-5	-5

One compound at a time, as listed above. Screens in order: Polio RdRp inh | Polio RdRp inh intensity | MenB inh | Mtb MbtI inh
Listed for CN(C)CP(=O)(O)CCc1ccccc1 : 99 | 102 | 7 | -7
Listed for CCOc1ccccc1NCC(=O)Nc1ccccc1C#N : 104 | 108 | -23 | -11

The list continues.
SMILES	Polio RdRp inh	Polio RdRp inh intensity	MenB inh	Mtb MbtI inh
CCc1ccc2[nH]c3nc(SCC(=O)OC(C)C)nnc3c2c1	103	101	-27	1
Cc1ccccc1NC(=O)c1cc(=O)[nH]c2ccccc12	104	102	-18	-2
O=c1c2ccccc2ncn1CN1CC=C(c2ccccc2)CC1	103	105	1	5
CCN(Cc1ccncc1)C(=O)c1cc2ccccc2oc1=O	103	103	·	-2
O=C(N1CCOCC1)N1CCc2ccccc21	103	103	-38	-15
O=C1C2=C(C(=O)c3ccccc31)C(c1ccccc1O)c1sc(=O)[nH]c1S2 (stereo not drawn)	95	97	-3	16
CCOC(=O)N1CCN(C(=O)CSc2c3c(nc4ccccc24)CCCC3)CC1	99	101	4	20
O=C(OCc1ccco1)c1cc2ccccc2oc1=O	105	103	-35	39
CN1C(=O)/C(=C2\SC(N3CCOCC3)=NC2=O)c2ccccc21	103	103	-10	2
O=C(CCNS(=O)(=O)c1ccc2c(c1)OCCO2)NC1CCN(Cc2ccccc2)CC1	105	104	-2	6
CC(C)NC(=O)CSc1nnc(Cc2ccccc2)n1Cc1ccco1	101	101	-10	18
CCC(=O)N1c2ccc(S(=O)(=O)CCC(=O)Nc3cccc(-c4ccno4)c3)cc2CC1C (stereo not drawn)	103	103	-9	-12
CC1(C)COC(CC(=O)c2ccc(Cl)cc2)=N1	·	·	-19	9

Arranged by molecular weight (lowest first): part of the list above.
SMILES	Polio RdRp inh	Polio RdRp inh intensity	MenB inh	Mtb MbtI inh
O=C(CC(=O)N1CCCCC1)N1CCCCC1	104	108	·	-17
CN1C(=O)/C(=C2\SC(N3CCOCC3)=NC2=O)c2ccccc21	103	103	-10	2
CC1CCCCN1C(=O)CSc1nnc(NCc2ccccc2)s1 (stereo not drawn)	102	105	-16	-3
O=C(COc1c(-c2ccccc2)oc2ccccc2c1=O)N1CCOCC1	100	98	-7	13
CCC1CCCCN1Cc1ccc(CNC(=O)c2cc3ccc4cccnc4c3[nH]2)o1 (stereo not drawn)	100	102	-2	-29

Bioassay records as filed in PubChem.
